Calb FLC = C. albicans growth inhibition with fluconazole, primary screen, CaCi-2 strain, Alamar Blue fluorescence; C. albicans CaCi-2 (fluconazole-resistant clinical isolate) + fluconazole, 48 h; growth inhibition, % (no concentration beside the values); actives 0.57% (n = 300,000); AID 1979, 2009;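 active means most replicates above 75%; inconclusive means exactly half above 75%; inactive means most below 75%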;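 further: all wells also contain fluconazole at 8 µg/ml as a sub-toxic cotreatment; 0% = median of DMSO wells and 100% = median of geldanamycin control wells; wells of about 8 µL received 7.5 nL stock; the first replicate is given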
RanGTP-Impb inh = inhibitors of RanGTP-importin-beta interaction, primary screen, biochemical, FRET, CFP-Ran, YFP-importin-beta, homogeneous; inhibition, % (test concentration not listed); cell-free CFP-Ran/YFP-importin-beta FRET ratio; Ran GTPase (GTP-bound) - importin-beta complex; actives 1.1% (n = 300,000);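 active means most replicates above 15%; inconclusive means exactly half above 15%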;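 further: 0% = DMSO wells and 100% = Ran loaded with GDP instead of GTP; wells of about 40 µL received 100 nL stock; the first replicate is given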
ALR H2O2 inh = inhibitors of human ALR sulfhydryl oxidase, primary screen, biochemical, H2O2 detection, HRP-luminol luminescence, single point; FAD-linked sulfhydryl oxidase ALR (Homo sapiens), P55789; purified ALR, DTT oxidation; inhibition, % (no concentration beside the values); actives 3.8% (n = 290,000);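 active means mean and each replicate at 75% or more; inconclusive means only one of the two met; inactive means neither met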;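 further: stock transfer was 7.5 nL into about 7.5 µL; 0% = neutral wells and 100% = wells with inactivated enzyme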
Target sequence (P55789 whole entry, looked up): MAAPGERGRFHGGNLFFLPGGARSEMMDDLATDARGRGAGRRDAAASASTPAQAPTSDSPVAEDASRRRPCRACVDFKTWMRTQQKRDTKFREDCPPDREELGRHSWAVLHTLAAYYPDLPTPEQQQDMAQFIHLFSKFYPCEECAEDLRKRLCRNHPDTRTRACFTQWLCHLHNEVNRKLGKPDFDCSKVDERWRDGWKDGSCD
FGF22 binding = binders of human FGF22 protein, primary screen, FGF22 synaptogenesis inhibitor project, biophysical, thermal shift, single point; Fibroblast growth factor 22 (Homo sapiens), Q9HCT0; recombinant FGF22 thermal shift, SYPRO orange fluorescence; percent of sucrose octasulfate shift, DMSO zero; calls only at 9.99 µM; actives 1.5% (n = 340,000); AID 651658, 2012;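 active means melting point raised past a set limit in the mean and every replicate; inconclusive means no clear call; three in four hits are not shown here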
Target sequence (Q9HCT0 whole entry, looked up): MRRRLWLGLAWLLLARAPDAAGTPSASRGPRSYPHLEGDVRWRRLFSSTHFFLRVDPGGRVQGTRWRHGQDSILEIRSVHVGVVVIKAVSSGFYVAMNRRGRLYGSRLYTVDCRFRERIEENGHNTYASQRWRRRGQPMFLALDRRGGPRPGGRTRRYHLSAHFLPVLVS
T cruzi repl = inhibitors of intracellular T. cruzi growth, primary screen, luminescence, NIH3T3 host cells. T. cruzi beta-gal in NIH3T3, 90 h. inhibition, % (no concentration beside the values). actives 1.4% (n = 300,000). AID 1885, 2009;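 active means mean inhibition across valid replicates above about 55%, limit read from the data; inconclusive means mean below that limit but half or more replicates reach it; inactive means mean below it, under half of replicates reach it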;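 further: signal also drops with host cell toxicity which is not excluded here; 0% = plate median of DMSO wells and 100% = zero luminescence signal; higher percent means less beta-gal luminescence so fewer parasites; stock transfer was 50 nL into about 50 µL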
Beta cell apopt = inhibitors of cytokine-induced beta cell apoptosis, primary screen, luminescence; INS-1E cytokine-induced death, ATP luminescence, 48 h; percent of positive-control rescue, neutral wells zero; actives 0.8% (n = 300,000); AID 435005, 2010; protection from apoptosis, % (no concentration beside the values);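 active means all replicates at 75% or more, or half of them and the mean; inconclusive means half reach 75% but not the mean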;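 further: 0% = cytokine-treated negative control wells and 100% = positive control rescue; higher means more ATP so stronger rescue from cytokine killing; wells of about 40 µL received 100 nL stock; the first replicate is given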
AF4-AF9 inh = inhibitors of AF4 peptide binding to AF9, primary screen, biochemical, AlphaScreen, biotin-AF4 peptide, FLAG-AF9, single point | inhibition, % at 10 µM | actives 0.47% (n = 350,000) | AID 651704, 2012;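 active means every replicate reaching a set inhibition limit, whatever the replicate mean, cut at about 25% in these data; inconclusive means mean inhibition reaches that limit but some replicates miss it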;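 further: 0% = plate neutral control median and 100% = total signal loss; the record names both 10 and 1 µM as test concentration; the first replicate is given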
Target sequence (P42568 whole entry, looked up): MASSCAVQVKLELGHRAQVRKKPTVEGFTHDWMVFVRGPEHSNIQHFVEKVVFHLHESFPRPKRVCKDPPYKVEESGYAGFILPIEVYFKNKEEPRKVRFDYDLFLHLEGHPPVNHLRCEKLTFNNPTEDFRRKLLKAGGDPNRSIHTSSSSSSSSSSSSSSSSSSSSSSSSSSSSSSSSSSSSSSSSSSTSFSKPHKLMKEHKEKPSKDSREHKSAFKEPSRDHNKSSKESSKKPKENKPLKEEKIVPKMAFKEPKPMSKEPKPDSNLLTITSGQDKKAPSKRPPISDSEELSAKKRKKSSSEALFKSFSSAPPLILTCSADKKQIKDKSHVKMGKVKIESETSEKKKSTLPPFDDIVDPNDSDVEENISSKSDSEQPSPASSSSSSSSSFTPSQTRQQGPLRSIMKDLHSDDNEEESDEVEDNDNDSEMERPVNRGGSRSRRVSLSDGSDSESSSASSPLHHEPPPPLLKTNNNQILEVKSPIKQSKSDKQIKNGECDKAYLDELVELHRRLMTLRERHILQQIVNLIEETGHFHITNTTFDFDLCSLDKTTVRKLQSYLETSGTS
rRNA inh HTS = reduced GFP signal of wild-type E. coli, primary screen, bacterial rRNA inhibitor project, GFP/RFP fluorescence, OD600, single point; E. coli WT GFP vs humanized-ribosome RFP mutants, 24 h; hits give low values; DMSO median 0, no signal -100; GFP signal change (wild-type ribosome), % (concentration not given with the values); actives 1.6% (n = 350,000);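 active means significant combined selectivity score with lowered wild-type GFP, culture density cut under 30%, mutant RFP and density less affected; inactive means any of these conditions unmet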; further: one replicate is shown; some compounds called inactive have numbers as strong as hits
rRNA inh HTS OD600 = recorded beside rRNA inh HTS, whose call it bears; OD600 change, %; measured here: OD600 growth;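 optical density of the mix in the first replicate; 0 = DMSO median and -100 = no signal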
rRNA inh HTS RFP = recorded beside rRNA inh HTS, whose call it bears; RFP signal change, %; measured here: RFP humanized mutant strains;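 first replicate; 0 = DMSO median and -100 = no signal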
* hit, by the source's call; i = inactive; ? = inconclusive; . = no result given.

SMILES	Calb FLC	RanGTP-Impb inh	ALR H2O2 inh	FGF22 binding	T cruzi repl	Beta cell apopt	AF4-AF9 inh	rRNA inh HTS	rRNA inh HTS OD600	rRNA inh HTS RFP
Cc1cc(C)nc(N2C(=O)CC(Cc3ccc(Cl)cc3)C2=O)n1 (centres undefined)	-3	6.2	0	i	-8	2	-0.7	9	7	-0.5
Cn1c(NC(=O)Cc2cccc3ccccc23)cc(=O)n(C)c1=O	-6	-7.0	0	i	1	-3	5.0	5	6	6.3
COCCSc1ccccc1C(=O)NCc1cccnc1	-9	-0.8	-2	i	1	-1	-9.9	23	26	2.2
O=C(CCc1nc2ccccc2[nH]1)NCc1ccc2c(c1)OCO2	-7	-0.9	-10	i	-6	-4	-3.3	3	8	0.2
Cc1cccc(N2CCN(C(=O)CSc3ccc4c(c3)OCCO4)CC2)c1C	.	.	-9	i	.	-1	-1.6	-8	-51	17
COc1ccc([N+](=O)[O-])cc1NC(=O)C1(c2ccccc2)CCOCC1	-17	2.6	-8	i	7	1	1.5	-16	-4	-2.2
Cc1ccc2[nH]c(CNC(=O)C3CCCCC3)cc2c1	-14	?	-14	i	-8	9	3.1	9	10	9.0
CCC(C)NC(=O)c1ccccc1-c1ccccc1C(=O)NC(C)CC (centres undefined)	48	?	-15	i	-17	-1	-1.2	11	5	4.2
CCOC(=O)c1cn(CC)c2cc(N3CCOCC3)c(F)cc2c1=O	-3	0.4	.	.	-7	-4	.	.	.	.
COc1ccc(-n2ncc3c(NCC(C)C)ncnc32)cc1	-3	2.5	6	.	-1	-6	.	.	.	.
O=C(NCCCNC(=O)c1cnccn1)c1ccc(Cl)cc1	-6	-3.1	-4	i	-16	-7	1.5	4	7	-0.4
CC(=O)O[C@]1(C(C)=O)CC[C@H]2[C@@H]3C=C(C)C4=CC(=O)CC[C@]4(C)[C@H]3CC[C@@]21C	.	2.9	.	i	-27	.	4.4	-56	-77	-11
CCOC(=O)C1=C(Nc2ccc(C)cc2)CC(C)(O)C(C(=O)OCC)C1c1ccccc1 (centres undefined)	-1	4.1	-24	.	25	11	.	.	.	.
COc1ccccc1N1CCN(C(=O)c2ccc(N(C)S(=O)(=O)c3ccccc3)cc2)CC1	2	0.5	.	i	20	2	4.4	-15	-21	8.0
COc1cc(/C=C/C(=O)O)cc(OC)c1	-1	-0.4	1	.	-7	-9	.	.	.	.
O=C(c1ccc2c(c1)OCO2)N1CCN(c2cccc(C(F)(F)F)c2)CC1	2	0.6	.	i	-3	0	-4.7	8	-20	1.0
CC(C)c1ccc(NC(=O)N2CCc3ccccc3C2)cc1	24	0.5	.	i	22	-4	-3.3	-16	-22	-0.2
Cc1ccc(S(=O)(=O)NNC(=O)C2CCN(Cc3ccccc3)CC2)cc1	5	4.1	.	.	-5	-2	.	.	.	.
Brc1ccc(-n2cc(-c3ccccc3)c3c(NN4CCOCC4)ncnc32)cc1	8	?	6	i	24	-7	10	-37	-68	2.3
COc1ccc(S(=O)(=O)NCCC(=O)NC2CCCCCCC2)cc1	-36	?	-2	.	-12	-1	.	.	.	.
Cc1ccc(-c2cc(-c3n[nH]c(=S)n3C)c3ccccc3n2)cc1	29	5.8	97*	i	19	6	-1.7	-21	-33	-13
COCCCn1nnnc1SCC(=O)Nc1ccc2c(c1)OCCO2	-13	-2.8	-23	i	7	-1	-1.0	5	10	0.8
COc1ccccc1CN1[C@@H](CC(C)=O)c2cc(C(F)(F)F)ccc2S1(=O)=O	14	0.6	-3	i	10	0	-4.7	-10	-12	-15
O=C(Nc1nsc(-c2ccccc2)n1)c1ccncc1	2	-0.8	1	.	-13	-2	.	.	.	.
C/C(=N\Nc1ccc(Cl)c(C(=O)O)c1)c1ccc2c(c1)OCO2	24	4.3	10	i	-12	-1	-2.3	15	10	2.1

Record cards, from the list above. Order of screens: Calb FLC | RanGTP-Impb inh | ALR H2O2 inh | FGF22 binding | T cruzi repl | Beta cell apopt | AF4-AF9 inh | rRNA inh HTS | rRNA inh HTS OD600 | rRNA inh HTS RFP
`COc1ccc([N+](=O)[O-])cc1NC(=O)C1(c2ccccc2)CCOCC1` as listed: -17 | 2.6 | -8 | i | 7 | 1 | 1.5 | -16 | -4 | -2.2
`COCCCn1nnnc1SCC(=O)Nc1ccc2c(c1)OCCO2` as listed: -13 | -2.8 | -23 | i | 7 | -1 | -1.0 | 5 | 10 | 0.8
`Cc1ccc(S(=O)(=O)NNC(=O)C2CCN(Cc3ccccc3)CC2)cc1` as listed: 5 | 4.1 | . | . | -5 | -2 | . | . | . | .
`Cn1c(NC(=O)Cc2cccc3ccccc23)cc(=O)n(C)c1=O` as listed: -6 | -7.0 | 0 | i | 1 | -3 | 5.0 | 5 | 6 | 6.3
`C/C(=N\Nc1ccc(Cl)c(C(=O)O)c1)c1ccc2c(c1)OCO2` as listed: 24 | 4.3 | 10 | i | -12 | -1 | -2.3 | 15 | 10 | 2.1

An excerpt from above in order of their number in rRNA inh HTS OD600, falling:
canonical_smiles,rRNA inh HTS OD600
Cc1ccc2[nH]c(CNC(=O)C3CCCCC3)cc2c1,10
Cc1cccc(N2CCN(C(=O)CSc3ccc4c(c3)OCCO4)CC2)c1C,-51
Brc1ccc(-n2cc(-c3ccccc3)c3c(NN4CCOCC4)ncnc32)cc1,-68

The listing continues.
SMILES	Calb FLC	RanGTP-Impb inh	ALR H2O2 inh	FGF22 binding	T cruzi repl	Beta cell apopt	AF4-AF9 inh	rRNA inh HTS	rRNA inh HTS OD600	rRNA inh HTS RFP
Cc1cc(OCC#N)nc(N)n1	-1	?	0	i	-13	1	-4.1	8	6	5.0
CC(=O)c1oc2ccccc2c1NC(=O)CN1CCCCC1	2	1.5	.	i	11	-1	2.5	0	0	3.5
COc1ccc(N2CCN(C(=O)CCC(=O)NNc3nc4ccccc4c4nc(C)nn34)CC2)cc1	-8	-2.6	99*	i	-2	0	5.2	4	11	0.3
COc1cc(OC)c(N(C)C(=O)CCNC(=O)Cn2cnc3ccccc3c2=O)cc1Cl	0	0.4	-4	.	3	-5	.	.	.	.
CCOc1ccccc1N1CCN(c2nc3ccccc3nc2C(C#N)C(=O)OC)CC1 (centres undefined)	-1	1.2	-13	.	23	-2	.	.	.	.
Cc1cccc(NC(=O)C2CCCN(c3nc(C)cc(C)n3)C2)c1 (centres undefined)	-13	1.4	1	i	-7	0	-2.5	15	9	-3.5
COCCN(CCOC)S(=O)(=O)c1ccc(C(=O)Nc2nnc(COC)o2)cc1	24	4.3	0	i	1	3	2.8	12	9	2.3
COc1ccccc1N1CCN(C2CCN(C(=O)COc3ccccc3)CC2)CC1	-20	-2.1	21	i	-14	0	-0.6	20	-3	1.7
Cn1nc(OCC(N)=O)ccc1=O	-2	-1.8	4	.	4	4	.	.	.	.
CC(NC(=O)c1cc(=O)[nH]c2ccc(Br)cc12)c1ccccc1 (centres undefined)	3	4.7	-2	i	0	-6	-1.3	10	10	0.2
O=C1c2ccccc2C(=O)N1n1cccc1	19	4.3	-2	.	-15	0	.	.	.	.
CC(=O)Nc1ccc(S(=O)(=O)NC(CC(=O)O)c2ccc(OC(C)C)cc2)cc1 (centres undefined)	-1	?	-21	.	-4	-4	.	.	.	.
O=C(CSc1nnc2sc3ccccc3n12)c1ccco1	3	3.1	-11	.	-5	5	.	.	.	.
O=C(CSc1nc2ccccc2o1)N/N=C/c1ccc(O)c(O)c1	11	-2.7	88*	i	-2	-2	14	2	-1	1.1
O=S(=O)(NCc1ccco1)c1ccc(Cl)s1	.	.	0	i	.	1	4.2	3	2	3.3
CNC(=O)NC(=O)C(OC(=O)Cc1cccc(C(F)(F)F)c1)c1ccccc1 (centres undefined)	7	-0.3	0	i	3	-2	-2.8	1	7	-0.2
CCOC(=O)Cc1csc(NC(=O)CCCN2C(=O)c3ccccc3C2=O)n1	-4	1.5	-1	.	-20	-3	.	.	.	.
COc1ccccc1N1CCN(C(=O)COc2ccc(S(=O)(=O)NC(C)(C)C)cc2)CC1	-2	-2.0	15	.	-1	9	.	.	.	.
CN1CCN(c2ccc(C(=O)NC3CCCCC3)cc2[N+](=O)[O-])CC1	-1	6.6	-9	i	-11	3	2.8	12	10	2.6
Cc1ccc(C)c(NC(=O)CSc2nnc(C)c(=O)n2N)c1	-3	-2.4	7	.	-3	2	.	.	.	.
COc1cc(NC(C)=O)ccc1-c1cc2ccccc2oc1=O	-6	-0.5	36	i	-1	0	-1.8	-5	-4	0.3
O=C(Nc1cc([N+](=O)[O-])ccc1O)c1cccc(NC(=O)c2ccco2)c1	?	-1.9	24	i	4	4	-3.7	4	7	0.9
O=C(C[C@H]1C/C=C\C[C@H](Cc2ccc(F)cc2)C(=O)O[C@@H](c2ccccc2)CNC1=O)NCCO	.	.	0	i	.	-7	2.5	-6	1	-7.3
CC(=O)C1C(c2ccc(O)cc2)NC(=O)NC1(O)C(F)(F)F (centres undefined)	1	4.9	-7	i	0	-13	-0.9	7	5	1.9
N#Cc1c2ncn(CC(=O)c3ccc(Br)cc3)c(=O)c2c2n1CCC2	-4	16*	-12	.	15	0	.	.	.	.

An excerpt from above, showing only Calb FLC.
SMILES	Calb FLC
COc1ccccc1N1CCN(C(=O)COc2ccc(S(=O)(=O)NC(C)(C)C)cc2)CC1	-2
CN1CCN(c2ccc(C(=O)NC3CCCCC3)cc2[N+](=O)[O-])CC1	-1
Cc1ccc(C)c(NC(=O)CSc2nnc(C)c(=O)n2N)c1	-3
COc1cc(NC(C)=O)ccc1-c1cc2ccccc2oc1=O	-6

(continued)
SMILES	Calb FLC	RanGTP-Impb inh	ALR H2O2 inh	FGF22 binding	T cruzi repl	Beta cell apopt	AF4-AF9 inh	rRNA inh HTS	rRNA inh HTS OD600	rRNA inh HTS RFP
CC(=O)c1cccc(NC(=O)Cn2cnc(S(=O)(=O)N3CCOCC3)c2)c1	4	-0.3	-4	.	1	-3	.	.	.	.
COc1cc(C(N)=O)ccc1OCc1ccccc1	-2	2.9	19	.	-8	-5	.	.	.	.
COc1ccc(CNC(=O)COC(=O)CNC(=O)c2sc3ccccc3c2Cl)cc1OC	.	.	.	i	.	-3	-3.2	-8	-11	0.1
CC(=O)NC(Cc1ccc(C(C)C)cc1)C(=O)NC1CCN(C(=O)c2cccc(C)c2)CC1 (centres undefined)	42	-0.7	-3	i	6	1	0.8	0	-3	1.1
CC(NC(=O)c1cc(-c2ccccc2)nc2ccccc12)C1CCCO1 (centres undefined)	7	-2.7	-2	.	-3	2	.	.	.	.
Cc1ncc(S(=O)(=O)c2ccccc2)c(-c2ccccc2Cl)n1	0	-0.9	4	.	-11	-4	.	.	.	.

Screens from PubChem.

An excerpt, so the mix of outcomes need not match the whole.
